Bioassay records from PubChem BioAssay.
nsP2pro inh = CHIKV nsP2 protease inhibition, primary qHTS; FRET peptide cleavage, nsP2pro, fluorescence 1 h; Potency, µM (highest dose often 24.9 µM), without a hit: at the top dose activity change, negative = inhibition, usual class: inhibitors; 31,000 tested, 1.1% active; active means well fitted inhibition curve with a large enough effect; inconclusive means small, poorly fitted or top-dose-only effect; inactive means no such curve, though single readings can be large or run the other way; also: nearly all actives have a fitted effect of over 60% in size; a reference inhibitor and vehicle were the controls
An asterisk follows results filed as active; i = inactive; ? = inconclusive; & = joins results of further samples; [ ] = another dose, or the depositor's remark. % is scaled to controls: 0 for no effect and ±100 for the full control effect; potency is read from the fitted curve at half-maximal effect. A portion of the library, so the mix of outcomes need not match the whole.

SMILES	nsP2pro inh
Cc1cc(C)nc(NS(=O)(=O)c2ccc(N)cc2)n1	-5%
COc1c2c(c(C)c3c1C(=O)OC3)OC1(C)CC(O)C34OC(OC)(OC3(C)C)C(O)CC4(C)C1C2 (stereo unspecified)	-16%[10 µM]
CC(C)NC(=O)COc1cccc(-c2nc(Nc3ccc4[nH]ncc4c3)c3ccccc3n2)c1	21%&99%
COc1ccc(CN2Cc3[nH]cnc3C[C@H]2C(=O)N2CCC(Cc3ccccc3)CC2)cc1	i
COc1ccc(C2=Nn3c(nnc3-c3ccccc3OC)SC2)cc1OC	2%
Cn1c(=O)n(C)c2cc(CNCc3ccccc3Cl)ccc21	-5%
CCOC(=O)C1CCN(c2cc3c(cc2NC(=O)c2ccc(OC)c(OC)c2)n(C)c(=O)n3C)CC1	-28%
COc1cc2c(cc1OC)CC(=O)N(CCCN(C)C[C@H]1Cc3cc(OC)c(OC)cc31)CC2	-4%
C[C@@H](N)C(=O)Nc1ccc(Cl)cc1C(=O)c1ccc[nH]1	-60%
NC(=O)CCCCC1CCSS1 (stereo unspecified)	-5%
COC(=O)c1cc2oc3ccccc3c2n1CC(=O)Nc1ccc(F)c(Cl)c1	-23%
COCCn1c(SCC(=O)c2cc(C)ccc2C)nc2cc(C(=O)NC3CCCC3)ccc2c1=O	34%[activator]
CCc1ccc(C2=CC(C)(C)Sc3ccc(C#Cc4ccc(C(=O)O)cc4)cc32)cc1	120%[activator]
COc1c2c(c(C)c3c1C(=O)OC3)OC1(C)CC(O)C34OC(OC)(CC(OC(C)=O)C3(C)C1C2)OC4(C)C (stereo unspecified)	?
COc1ccc(NC(=O)CCS(=O)(=O)c2nc(-c3ccc4c(c3)OCO4)cc(C(F)(F)F)n2)c(OC)c1	10%

A stretch from the list above:
SMILES	nsP2pro inh
COc1c2c(c(C)c3c1C(=O)OC3)OC1(C)CC(O)C34OC(OC)(OC3(C)C)C(O)CC4(C)C1C2 (stereo unspecified)	-16%[10 µM]
CC(C)NC(=O)COc1cccc(-c2nc(Nc3ccc4[nH]ncc4c3)c3ccccc3n2)c1	21%&99%
COc1ccc(CN2Cc3[nH]cnc3C[C@H]2C(=O)N2CCC(Cc3ccccc3)CC2)cc1	i
COc1ccc(C2=Nn3c(nnc3-c3ccccc3OC)SC2)cc1OC	2%
Cn1c(=O)n(C)c2cc(CNCc3ccccc3Cl)ccc21	-5%
CCOC(=O)C1CCN(c2cc3c(cc2NC(=O)c2ccc(OC)c(OC)c2)n(C)c(=O)n3C)CC1	-28%
COc1cc2c(cc1OC)CC(=O)N(CCCN(C)C[C@H]1Cc3cc(OC)c(OC)cc31)CC2	-4%
C[C@@H](N)C(=O)Nc1ccc(Cl)cc1C(=O)c1ccc[nH]1	-60%
NC(=O)CCCCC1CCSS1 (stereo unspecified)	-5%
COC(=O)c1cc2oc3ccccc3c2n1CC(=O)Nc1ccc(F)c(Cl)c1	-23%
COCCn1c(SCC(=O)c2cc(C)ccc2C)nc2cc(C(=O)NC3CCCC3)ccc2c1=O	34%[activator]
CCc1ccc(C2=CC(C)(C)Sc3ccc(C#Cc4ccc(C(=O)O)cc4)cc32)cc1	120%[activator]
COc1c2c(c(C)c3c1C(=O)OC3)OC1(C)CC(O)C34OC(OC)(CC(OC(C)=O)C3(C)C1C2)OC4(C)C (stereo unspecified)	?
COc1ccc(NC(=O)CCS(=O)(=O)c2nc(-c3ccc4c(c3)OCO4)cc(C(F)(F)F)n2)c(OC)c1	10%

Next section
SMILES	nsP2pro inh
O=C(Cc1nnc(-c2cc3ccccc3[nH]2)s1)Nc1cc(C(F)(F)F)ccc1Cl	-5%&0%
Cc1nc(CC(=O)N2CCCC3(CCC(=O)N(CCC(C)C)C3)C2)cs1 (stereo unspecified)	-7%
C/C=C/C=C/C=C/C(=O)O[C@@H]1C=C2COC(=O)[C@]2(O)[C@@]2(C)CCCC(C)(C)[C@H]12	1%[10 µM]
Cc1nc(N2CCC(NC(=O)C3CCCCC3)CC2)cc(C(F)(F)F)n1	i
CCN(C)C(C)C(O)c1ccccc1 (stereo unspecified)	-6%
COc1ccc(S(=O)(=O)N(CC(=O)Nc2ccccc2Cl)Cc2ccccc2)cc1	-14%
CS(=O)(=O)c1ncc(N(Cc2ccccc2)Cc2ccco2)c(C(=O)Nc2cccc(C(F)(F)F)c2)n1	-5%
COc1cc(Cl)c(C)cc1NC(=O)Cn1ncc2c1-c1cc(C)ccc1OC2	-18%
Cc1ccc(C)c(N2CCN(c3ncnc4c3nc3n4CCCCC3)CC2)c1	-18%
O=S(=O)(Nc1cccc(C(F)(F)F)c1)c1ccc(NS(=O)(=O)c2ccc3c(c2)OCCO3)cc1	14%
CCCCN(C)CCCNC(=O)Cn1ncc2c3ccccc3n(Cc3ccccc3)c2c1=O	1%
Cc1ccccc1NC(=O)CSc1nnc(-c2cccs2)o1	-9%
COc1cccc(OC)c1C1=Nn2c(nnc2-c2ccccc2O)SC1	4%
O=C(O)CCN(O)C(=O)CCCCCCCCC1CC1	7%
Cc1cc(C(=O)N2CC(F)(F)C[C@H]2c2nnc(C)o2)no1	-6%
CCCCN(CC)C(=O)Cn1cc2c(n1)-c1c(oc(C(=O)N3CCCC3)c1C)CC2	?
CC(C)NC(=O)N1CCN(S(C)(=O)=O)[C@@H](C(=O)N[C@H](Cc2c[nH]c3ccccc23)C(N)=O)C1	-3%
CC(C)(C)C(=O)Nc1ccc(-c2nc3ccc(NC(=O)C(C)(C)C)cc3[nH]2)cc1	-6%
O=C(Nc1ncc(Cc2ccc(Cl)cc2)s1)c1ccc2c(c1)CC(c1ccccc1)OC2=O (stereo unspecified)	-12%
Fc1cnc(-c2ccccc2C(F)F)nc1NCc1ccc(-c2cccnc2)cc1	i
COc1ccc(CNC(=O)c2ccc(NC(=O)N3CCCCc4ccccc43)cc2)c(OC)c1	-30%
C[C@@H](CN(C)C)CN1c2ccccc2Sc2ccccc21	-1%
COc1cc2ncnc(Nc3cccc(Cl)c3F)c2cc1OC(=O)N1CCN(C)C[C@H]1C	6%
Nc1cc(C(=O)N2CCc3onc(-c4ccc(-c5ccccc5)cc4)c3C2)[nH]n1	i
CCN1CCCC1CNC(=O)c1cc(S(=O)(=O)CC)c(N)cc1OC (stereo unspecified)	-7%&-11%
CO[C@H]1O[C@@H]2O[C@@]3(C)CC[C@H]4[C@H](C)CC[C@@H]([C@@H]1C)[C@@]24OO3	-7%
Cc1ccc(-c2nn3c(-c4ccccc4)nnc3s2)cc1NC(=O)c1ccc(-c2cccc(Cl)c2)o1	?
COCCS(=O)(=O)c1ncc(CN(C)Cc2ccsc2)n1Cc1ccccc1	3%
CCCC(=O)Nc1nc2c(s1)CC(C(C)(C)C)CC2 (stereo unspecified)	-16%
CC(C)NC(=O)CN1C(=O)NC(c2ccc(Cl)cc2)C2=C1COC2=O (stereo unspecified)	-8%
COc1ccc2c(c1)c1c(c(=O)n(Cc3ccccc3)c(=O)n1Cc1ccccc1)n2C	-24%
Cn1c(=O)n(CCCc2ccccc2)c(=O)c2c1nc1n2CCN1c1ccc(F)cc1	-11%
O=C(NC1CCCC1)N1CCC(Cc2nncn2CC2CC2)CC1	?
COc1ccc(CN2COc3ccc4c(oc(=O)c5ccccc54)c3C2)cc1OC	-28%
O=C(c1ccc2ncccc2c1)N1CCC(c2nc(CCOCC3CCOCC3)no2)C1 (stereo unspecified)	2%
CCCC1CCN(C(=O)COC(=O)c2ccc(S(C)(=O)=O)c([N+](=O)[O-])c2)CC1	-6%
CN(C)C[C@@H]1CN(S(C)(=O)=O)C[C@H]1NC(=O)c1ccc2[nH]ccc2c1	1%
O=C(O)C(S)C(S)C(=O)O (stereo unspecified)	8.8µM*
CC(NC(=O)Cn1c(=O)oc2cc(S(=O)(=O)NCc3ccccc3)ccc21)c1ccccc1 (stereo unspecified)	-20%
CN1CCC2(CCC1=O)CN(C(=O)c1ccc(Cn3cccn3)o1)CCN2C (stereo unspecified)	i
NC(CSCC(=O)O)C(=O)O (stereo unspecified)	0%
Cn1cnnc1-c1nn(C)c2c1CNCC2	-7%
COc1ccc(C(=O)Oc2cc(-c3ccc4c(c3)OCO4)cc(=O)c3c(C)oc(C)c23)cc1	-11%
O=C(c1cn[nH]c1)N1CCC(c2nc(CCOCC3CC3)no2)C1 (stereo unspecified)	-14%
O=C(Cn1c(SCC(=O)Nc2ccc(F)cc2)nc2ccccc21)NCc1ccccc1Cl	-19%
CCC(=O)N1CCc2cc(Br)cc(S(=O)(=O)N3CCC(C(=O)Nc4ccc(OC)cc4)CC3)c21	-8%
COc1ccc(NC(=O)c2cccnc2C)cc1S(=O)(=O)Nc1ccc(Br)cc1	-4%
Cn1cc(C2=C(c3cn(CCCN)c4ccccc34)C(=O)NC2=O)c2ccccc21	9%
c1cc(-c2ccnc3nc(C4CCC4)nn23)ccn1	-5%
CC(C(=O)O)c1ccc2c(c1)[nH]c1ccc(Cl)cc12 (stereo unspecified)	?
C/C=C(\C)C(=O)O[C@@H]1[C@@H](C)[C@]2(O)[C@@H]3C=C(C)C(=O)[C@H]3CC(CO)=C[C@H]2C2C(C)(C)[C@@]21OC(=O)C(C)CC (stereo partly specified)	10%[10 µM]
CC[C@H]1OC(=O)[C@H](C)[C@@H](O[C@H]2C[C@@](C)(OC)[C@@H](O)[C@H](C)O2)C(C)[C@@H](O[C@@H]2O[C@H](C)C[C@H](N(C)C)[C@H]2O)[C@](C)(O)C[C@@H](C)CN(C)[C@H](C)[C@@H](O)[C@]1(C)O (stereo partly specified)	2%
O=C(O)CCc1cc2ccoc2cc1O[C@@H]1O[C@H](CO[C@@H]2OC[C@](O)(CO)[C@H]2O)[C@@H](O)[C@H](O)[C@H]1O	?
O=C(/C=C/c1ccccc1)OC[C@]12O[C@H]1[C@@H](O)[C@@H]1C=CO[C@@H](O[C@@H]3O[C@H](CO)[C@@H](O)[C@H](O)[C@H]3O)[C@@H]12	4%[10 µM]
Nc1ncnc2c1ncn2[C@@H]1O[C@H](CO)[C@@H](O)[C@H]1O	?
O=C(CN1CCCCC1)N1CCCC(N2CCN(Cc3ccc4c(c3)OCO4)CC2)C1 (stereo unspecified)	5%
COC(=O)c1cc2sc(Cl)cc2n1Cc1nc(-c2ccccc2F)oc1C	-21%
O=C1COCC2(CN(CCC(F)(F)F)C2)CN1Cc1cccc(OC(F)(F)F)c1	-5%[39.2 µM]
O=C(CN(CCc1ccccc1)S(=O)(=O)c1ccccc1)NCc1ccc(Cl)cc1	-20%
O=C(/C=C/c1cccc(Cl)c1)Nc1cccc([S+](=O)([O-])Nc2ccccc2F)c1	0%

Later entries
SMILES	nsP2pro inh
CNC(=O)c1c(I)c(NC(=O)CCCCC(=O)Nc2c(I)c(C(=O)O)c(I)c(C(=O)NC)c2I)c(I)c(C(=O)O)c1I	12%
c1cc(N[C@@H]2CCNC2)nc(-c2cnc3ccc(-c4cn[nH]c4)cn23)c1	183%[activator]
Cc1ccc(S(=O)(=O)c2nc(-c3ccco3)oc2SC(C)c2ccccc2)cc1 (stereo unspecified)	-7%
Cc1ccc(C(=O)N2CCC(C(=O)N3CCCCCCNC(=O)CC3)CC2)s1	-12%
O=S(=O)(Cc1ccc(Cl)c(Cl)c1)Nc1nnc(-c2ccncc2)s1	-22%
N#CCn1ccn2nc3c(c2c1=O)CCCC3	i
COc1ccccc1CNC(=O)CCn1cnc2ccccc2c1=O	-21%
CC(=O)NCCCC(=O)N1CCC2(CC1)CC(N[S+](C)(=O)[O-])c1ccccc12 (stereo unspecified)	25%
C=C1C[C@H]2[C@@H]3CCC4=CC(=O)CC[C@@H]4[C@H]3CC[C@]2(C)[C@@]1(OC(C)=O)C(C)=O	-13%
COc1cc(F)c(S(=O)(=O)N2CCN(S(=O)(=O)c3ccc(N)cc3)CC2)c(F)c1	-10%
CNS(=O)(=O)c1ccccc1Nc1nc(Nc2ccc(N3CCN(C)CC3)cc2OC)ncc1Br	59%[activator]
NCCCCN=C(N)N	?
O=C(c1cccc(-c2ccccn2)c1)N1CCN([S+](=O)([O-])c2ccccc2)CC1	i
c1csc(CNc2ncnc3cc(-c4ccc5c(c4)OCO5)ccc23)c1	4%
C[C@@H](NC(=O)C1=C[C@@H](NS(=O)(=O)c2cccc(C(F)(F)F)c2)[C@@H](O)[C@H](O)C1)C(N)=O	i
CNC(=O)c1cn2c(n1)CN(C(=O)OCc1ccccc1)CC2	i
O=C(Nc1onc2c1CCCC2)c1ccc(Cl)cc1	-6%
CC1CCN(CC2CCCCCN2C(=O)CC2CCCC2)CC1 (stereo unspecified)	?
Cc1ccc(C(=O)N2CCC(N3C(=O)C4(CCCC4)C3c3scnc3C)CC2)cn1 (stereo unspecified)	-7%
CCCCS(=O)(=O)N1C[C@@H](C(N)=O)[C@H](C2CCN(C)CC2)C1	2%
O=C(c1ccc2c(c1)OCCO2)N1CCc2[nH]nc(-c3ccccc3F)c2C1	i
CC(=O)N1CCC(N2CC3(C2)C(=O)N(CCCN2CCCC2=O)C(=O)[C@@H]2C[C@@H](O)CN23)CC1	?
O=C(Nc1sc2c(c1C(=O)NCC1CCCO1)CCC2)c1cc(=O)c2ccccc2o1 (stereo unspecified)	-4%
C/C(=C\C(=O)OCCCCCCCCC(=O)O)C[C@@H]1OC[C@H](C[C@@H]2O[C@H]2[C@@H](C)[C@H](C)O)[C@@H](O)[C@H]1O	2%&0%
COCC1CN(Cc2ccc(C(C)C)cc2)CC12CCNCC2 (stereo unspecified)	i
CC(C)c1ccc(-n2cc(CN3CCN(C(=O)N(C)C)CC3)cn2)cc1	i
Cc1ccc(S(=O)(=O)NC(=O)NN2CC3CCCC3C2)cc1 (stereo unspecified)	18%
COc1ccccc1N1CCCc2ncc(C(=O)N3CCN(C(C)=O)CC3)cc21	?
CC(C)=CCC[C@@](C)(O)[C@H]1CC[C@]2(C)[C@@H]1[C@H](O)CC1[C@@]3(C)CC[C@H](O[C@@H]4O[C@H](CO)[C@@H](O)[C@H](O)[C@H]4O[C@@H]4O[C@H](CO)[C@@H](O)[C@H](O)[C@H]4O)C(C)(C)[C@@H]3CC[C@]12C (stereo partly specified)	28%[10 µM]
COc1ccc(OC)c2sc(N3CCN(C(=O)CCS(=O)(=O)c4ccc(F)cc4)CC3)nc12	-13%
